Bioassay records from PubChem BioAssay.
NPYLR7 ag: agonists of mosquito NPYLR7 receptor, primary screen, cell-based, Aedes aegypti, calcium fluorescence, mosquito biting behavior. Aedes aegypti neuropeptide Y-like receptor 7 (NPYLR7). activation, % at 10 µM. actives 0.15% (n = 270,000). HEK293T NPYLR7/Galpha15, GCaMP6s calcium fluorescence; in the data active means activation above about 40%;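 further: 0% = vehicle and 100% = reference agonist at the receptor; some compounds past the cut are filed as inactive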
NPYLR7 ag max-min: also measured in NPYLR7 ag; calls as there; activation, %; measured here: Max-Min RFU normalised activation; some inactives read as strong as hits;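 span of the calcium signal over five minutes; 0% = vehicle and 100% = native peptide agonist; compound fluorescence can raise it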
Numbers without * were called inactive; & = joins results of further samples. This is a subset; the hit share may differ from the screen's.

SMILES	NPYLR7 ag	NPYLR7 ag max-min
COc1ccc(C2SC(C)C(=O)N2CCO)cc1OC (stereo not drawn)	-2	-6
COc1ccc(S(=O)(=O)N[C@@H]2CC[C@@H](N)C2)c2c1CCCC2	18	7
CSC1=NCCN1C(=O)c1cc(-c2csc(C)n2)c[nH]1	6&-17	-7&-22
O=C(CN(c1cccc([N+](=O)[O-])c1)S(=O)(=O)c1ccccc1)Nc1cccc2ccccc12	7	10
Cn1c(SCC(=O)NN2C(=O)NC3(CCCCC3)C2=O)nnc1C1CC1	38	35
COc1ccc(Nc2nc(C)c([N+](=O)[O-])c(Nc3ccc(OC)cc3OC)n2)c(OC)c1	-10	-8
Cc1ccc(S(=O)(=O)c2cnc(N3CCC(C)CC3)nc2N)cc1	-4	-8
O=C(c1ccccc1)N1CCN(c2ccc(-n3cccn3)nn2)CC1	5	3
COc1ccc(Cl)cc1C(N)CC(C)C (stereo not drawn)	-4	-10
O=C(CSC1=NS(=O)(=O)c2ccccc2N1)NC1CCCC1	2	-1
Cc1nc(CN2CCN(C(=O)c3cc(Cl)ccc3I)CC2)n[nH]1	-1	-2
CCCC[C@@H](CC)COC(=O)C(C#N)=C(c1ccccc1)c1ccccc1	-2	4
CCc1nc(CN2CCC(CCC(=O)N3CCN(c4ccccc4)CC3)CC2)c(C)[nH]1	13	11
O=C(NCCN1CCOCC1)NC(c1ccccc1)C1CCC1 (stereo not drawn)	-14	-16
Cc1cc(N(C)Cc2cc(C(C)C)on2)nc(-c2cccnc2)n1	4	-5
O=C(c1cnn(-c2ccccc2)c1)N1CCN(S(=O)(=O)c2ccccc2Cl)CC1	0	-2
CC(Cn1ccnc1)NCC1(N2CCOCC2)CCCCC1 (stereo not drawn)	12	11
O=S(=O)(c1cc(Br)ccc1Br)N1CCC1c1ccccc1 (stereo not drawn)	9	6
C/C=C(\C)C(=O)Nc1cccc(-c2cccc(-c3ccc(F)cc3)n2)c1	14	26
CCC(CC)C(=O)N1CCC2(CCN(Cc3sccc3C)CC2)CC1	2	-1

The list goes on; it opens with the two that closed the last part.
SMILES	NPYLR7 ag	NPYLR7 ag max-min
C/C=C(\C)C(=O)Nc1cccc(-c2cccc(-c3ccc(F)cc3)n2)c1	14	26
CCC(CC)C(=O)N1CCC2(CCN(Cc3sccc3C)CC2)CC1	2	-1
COc1ccc(C(CC(=O)N(C)Cc2c(C)nn(C)c2C)c2ccccc2)cc1 (stereo not drawn)	13	0
O=c1oc2c(-c3ccc(F)cc3)cc(O)cc2s1	3	2
Cn1c(=O)c2cc(S(=O)(=O)NCC3CC4CCC3C4)ccc2n(C)c1=O (stereo not drawn)	-4	-8
CCCCc1ccc(S(=O)(=O)NC(=O)C2(C)CCN2C(=O)c2ccccc2)cc1 (stereo not drawn)	5	3
O=C(Nc1n[nH]c(-c2cccs2)n1)c1cccc(F)c1F	-5	-5
CCOC(=O)C1CCN(CCOc2ccc3c(c2)O/C(=C\c2ccc(OC)cc2)C3=O)CC1	4	10
O=C(COCc1ccccc1)N1CCc2ccccc2C1c1ccc(F)cc1 (stereo not drawn)	6	18
N#C/C=C/N(CCc1ccccc1)CCc1ccccc1	1	-3
Cc1cc(OC(=O)CC2CCCC2)c([N+](=O)[O-])c(=O)[nH]1	-2	-5
Cc1ccsc1CN(Cc1cccc(C(F)(F)F)c1)Cc1nc(C(=O)O)co1	14	18
Cc1ccc2c(c1)c1ncn(Cc3ccccc3)c(=O)c1n2CC(=O)Nc1ccc2c(c1)OCCO2	-4	-9
CCc1ccc(C2C(C(=O)OCCc3ccccc3)=C(C)NC3=C2C(=O)CCC3)cc1 (stereo not drawn)	-5	-1
COc1ccc(-c2nc3cc(C)ccn3c2NC(=O)Nc2ccc(C)cc2)cc1OC	-11	-7
CCc1ccc(NC(=O)N(CC(=O)N(CCOC)Cc2cccn2C)CC(C)C)cc1	23	17
CCCC1(C)CCCN(S(C)(=O)=O)C1 (stereo not drawn)	19	9
COc1ccccc1C(=O)N1CCN(c2cc(Oc3ccc(F)c(F)c3)ncn2)CC1C (stereo not drawn)	8	7
O=C(NCCC1=CCCCC1)C1CCC(CNc2c(N3CCCC3)c(=O)c2=O)CC1 (stereo not drawn)	3	3
CC(C)C(C(=O)O)n1c(-c2cccs2)n[nH]c1=S (stereo not drawn)	-3	-5
CCOC(=O)C1(CCOC)CCCN(C/C=C/c2ccc(OC)cc2)C1 (stereo not drawn)	2	-2
CCNc1nc(C)c(C(=O)N2CCN3CCN(C)C(=O)C3C2)s1 (stereo not drawn)	-3	-3
CCC(Cn1ccnc1)NC(=O)C1=NNC(=O)CC1 (stereo not drawn)	15	10
CCN(CC)c1ncccc1CNC(=O)c1cccnc1OC	8	6
Cc1ccc2[nH]cc(C3CCN(S(=O)(=O)c4ccccc4C(F)(F)F)CC3)c2c1	-3	9
COc1ccc(S(=O)(=O)N(CC(=O)Nc2cccc(Cl)c2C)c2ccc(C)cc2)cc1OC	-22	-13
Cc1cccc(-n2ncc3c(=O)n4c(nc32)SCC4CC(=O)NCc2cccs2)c1 (stereo not drawn)	0	-2
Cc1ccccc1-c1noc(-c2cccc(NC(=O)C(C)n3cncn3)c2)n1 (stereo not drawn)	12	7
CN(C)c1ccc(NC(=O)C2CCCC2)cc1CN(Cc1ccco1)C(=O)c1cccs1	-1	2
COCCN(CC(=O)N(Cc1ccc2c(c1)OCO2)Cc1ccco1)C(=O)C1CCC1	-4	-1
CCOC(=O)C1CCCN(C(=O)c2cc(-c3cccc(OC)c3)nn2-c2ccc(OC)cc2)C1 (stereo not drawn)	-3	5
CC(=O)N1CCN(c2cc(C(F)(F)F)nc(SCc3ccc(C(=O)O)o3)n2)CC1	4	16
Cc1nnc(SCCn2c(N3CCCCCC3)nc3c2c(=O)n(C)c(=O)n3C)s1	4	7
COc1ccc(OC)c(C2CC(c3ccccc3F)=NN2C(=O)CN2CCOCC2)c1 (stereo not drawn)	0	5
CN1C(=S)N(C2CCCCC2)C(=O)/C1=C\c1ccc[nH]1	26	27
Cc1cc(C(F)(F)F)n2nc(N)nc2n1	3	4
CC(c1ccccc1-n1cccn1)n1ccnc1-c1ccco1 (stereo not drawn)	10	10
Cc1ccc(-c2nnn(Cc3ccc(C#N)cc3)n2)cc1	8	3
Cc1ccc(C2(C(F)(F)F)NC(=O)N3N=C(N4CCOCC4)N(c4ccccc4)C3=C2C#N)cc1 (stereo not drawn)	-4	-7
COCc1nnc(NC(=O)CN2C(=O)c3ccccc3NC2CC(C)C)s1 (stereo not drawn)	3	33
Cc1cc(Oc2ccccc2C(C)C)nc(SCc2ccccc2C)n1	0	1
Cc1nc(SCC(=O)NCC(C)C)c2c(C)c(C)sc2n1	1	-3
O=C1NCCC[C@@H]1NC(=O)[C@@H]1CN(C(=O)Nc2ccccc2)CCN1C(=O)c1cnccn1	1	-4
COc1cc2c(cc1-c1nccn1CCc1nc3ccccc3[nH]1)OCO2	0	-3
Cc1cc(N)n(-c2c(Cl)cc(Cl)cc2Cl)n1	4	1
CN(CC(=O)NC1CC1)c1ccc(S(=O)(=O)NCc2ccco2)cn1	-2	-2
Cc1cccc(OCC(O)CNC(C)C)c1 (stereo not drawn)	-21	-23
O=C(CSc1nnc(-c2cccs2)n1C1CC1)c1ccc(Cl)s1	6	6
COc1ccc(-c2nc(-c3ccc(Br)o3)no2)cc1	2	-2
CN(Cc1ccc(-n2cccn2)cc1)Cc1cnc(N(C)C)nc1	10	6
COCC(NC(=O)c1cc(NC(C)=O)ccc1Cl)c1ccnn1C (stereo not drawn)	1	-1
O=C(COc1ccccc1)N1CCC(n2c(=O)oc3ccc(Cl)cc32)CC1	-9	3
CCCNC(=O)C(C)NC(=O)c1ccc(Oc2ccc(F)cc2)cc1 (stereo not drawn)	1	-1
CN1C(=S)N(CCCN2CCOCC2)C(=O)/C1=C\c1ccc2c(c1)OCO2	17	22
COc1ccc(SCc2csc(-c3c(F)cccc3F)n2)cc1	24	31
COc1ccc(Nc2nc(-c3ccc(CN(C)C(C)=O)cc3)cs2)cc1	-7	-5
Cc1cccc2nc(CSc3nnnn3C3CCCC3)cc(=O)n12	2	0
Cc1ccccc1Cn1ccnc1CN(C(=O)c1ccc(F)cc1)C1CCCCC1	10	11
COc1cccc(CN2CCC2(C)C(=O)Nc2ccc(C)c(O)c2)c1F (stereo not drawn)	3	-5
CCc1ccc(C(=O)Nc2c(-c3ccccc3OC)nc3cc(C)ccn23)cc1	-3	2
Clc1ccc(Cc2nc(CSc3cccs3)cs2)cc1Cl	24	22
Cc1noc(CCCNC(=O)NCc2cc(C#N)ccc2F)n1	1	0
Continued.
SMILES	NPYLR7 ag	NPYLR7 ag max-min
CCOC(=O)CCCCCC(=O)N1CCc2c([nH]c3ccc(OC)cc23)C1c1ccc(-c2ccccc2C(F)(F)F)o1 (stereo not drawn)	21	8
O=C(Cc1ccccc1Br)NCc1ccoc1	9	4
COc1cc(-c2nccn2Cc2cccc3[nH]ccc23)cc2c1OCO2	19	9
COC(=O)CSc1ccnc(SC)n1	-6	-9
CCOCCn1ccc2c(OCC(=O)c3ccc(Cl)cc3)cccc2c1=O	-1	12
COC(=O)c1ccc(C=Nc2c(-c3ccco3)nc3ccccn23)cc1	3	-2
Cc1ccc2oc(-c3ccc(Cl)cc3OS(=O)(=O)c3ccc(F)cc3)nc2c1	0	13
COc1ccc(NS(=O)(=O)c2ccc3oc(SCCOc4ccccc4)nc3c2)cc1	11	1
Cc1ccc(NC(=O)COCC(F)(F)F)c2cccnc12	12	8
C=CCN(Cc1ccc(O)c(C)c1)Cc1ccccn1	-2	-5
COc1cc(-c2cccs2)cc2c1OCCN(C(=O)CCc1cn[nH]c1)C2	28	21
CNc1cccc(-c2ccc(C#N)cc2)n1	2	1
Cc1ccc(-c2csc(NC(=O)c3ccc4c(c3)CCN4S(C)(=O)=O)n2)cc1C	-2	9
COc1ccc(C)cc1N1CCN(C(=O)COc2ccc(Cl)cc2)C(C)C1=O (stereo not drawn)	-14	-13
COc1ccc(CN(C)C(=O)c2cn(CC3CCCO3)nn2)c2cccnc12 (stereo not drawn)	15	14
N#CCCC1(CCC#N)S(=O)(=O)CC(c2ccccc2)CS1(=O)=O	3	1
Cc1nnc(N2CCN(c3nnc(C)s3)CC2)s1	-7	-7
Cc1nn(-c2nc(-c3ccco3)cc(C(F)(F)F)n2)c(C)c1Cl	12	3
CN(Cc1nc(Cc2cccc(C(F)(F)F)c2)no1)CC1COc2ccccc2O1 (stereo not drawn)	4	-2
Cc1nn(C(=O)Cc2ccccc2)c(C)c1Sc1ccccc1[N+](=O)[O-]	-1	4

20 compounds from above, arranged by molecular weight, smallest number first.
SMILES	NPYLR7 ag	NPYLR7 ag max-min
CNc1cccc(-c2ccc(C#N)cc2)n1	2	1
COC(=O)CSc1ccnc(SC)n1	-6	-9
C=CCN(Cc1ccc(O)c(C)c1)Cc1ccccn1	-2	-5
Cc1nnc(N2CCN(c3nnc(C)s3)CC2)s1	-7	-7
O=C(Cc1ccccc1Br)NCc1ccoc1	9	4
Cc1ccc(NC(=O)COCC(F)(F)F)c2cccnc12	12	8
Cc1noc(CCCNC(=O)NCc2cc(C#N)ccc2F)n1	1	0
Cc1nn(-c2nc(-c3ccco3)cc(C(F)(F)F)n2)c(C)c1Cl	12	3
COC(=O)c1ccc(C=Nc2c(-c3ccco3)nc3ccccn23)cc1	3	-2
COc1cc(-c2nccn2Cc2cccc3[nH]ccc23)cc2c1OCO2	19	9
N#CCCC1(CCC#N)S(=O)(=O)CC(c2ccccc2)CS1(=O)=O	3	1
Clc1ccc(Cc2nc(CSc3cccs3)cs2)cc1Cl	24	22
COc1ccc(CN(C)C(=O)c2cn(CC3CCCO3)nn2)c2cccnc12 (stereo not drawn)	15	14
COc1cc(-c2cccs2)cc2c1OCCN(C(=O)CCc1cn[nH]c1)C2	28	21
CCc1ccc(C(=O)Nc2c(-c3ccccc3OC)nc3cc(C)ccn23)cc1	-3	2
CCOCCn1ccc2c(OCC(=O)c3ccc(Cl)cc3)cccc2c1=O	-1	12
COc1ccc(C)cc1N1CCN(C(=O)COc2ccc(Cl)cc2)C(C)C1=O (stereo not drawn)	-14	-13
CN(Cc1nc(Cc2cccc(C(F)(F)F)c2)no1)CC1COc2ccccc2O1 (stereo not drawn)	4	-2
Cc1ccc(-c2csc(NC(=O)c3ccc4c(c3)CCN4S(C)(=O)=O)n2)cc1C	-2	9
COc1ccc(NS(=O)(=O)c2ccc3oc(SCCOc4ccccc4)nc3c2)cc1	11	1

Additional entries follow.
SMILES	NPYLR7 ag	NPYLR7 ag max-min
O=C1OC(c2ccccc2Br)=N/C1=C/c1cccnc1	1	-6
Cn1ccnc1CNC(=O)N1CCC(c2ccc(F)cc2)C1 (stereo not drawn)	-23&1	-26&-1
Cn1ncc2c1CCCC2Nc1nc(-c2ccncc2)nc2c1CCC2 (stereo not drawn)	7	3
CC(C)N(C)Cc1nnnn1CC(=O)N(C)CC1COc2ccccc2O1 (stereo not drawn)	1	-2
Clc1c(-c2nnc3n2N=C(c2cccs2)CS3)sc2ccccc12	0	-2
Cn1nnc2c(N3CCN(CC(N)=O)CC3)ncnc21	0	9
Cn1c(SCc2ccc(Br)cc2)n[nH]c1=O	-7	-7
Cc1ccc2nc(NC(=O)c3cc(S(=O)(=O)N4CCOCC4)ccc3C)sc2c1	3	3
CC(C)SC(NC(=O)OCc1ccccc1)C(=O)N1CCCC1c1nnc2c(C(F)(F)F)cccn12 (stereo not drawn)	-16	-24
COc1ccc(NC(=O)Cn2c(-c3nnc(CC(C)C)o3)cc3ccccc32)c(OC)c1	-4	-4
CCc1c(C)nn(-c2ccc(C(=O)NCc3ccco3)cc2)c1C	-9	-12
CC1(C(=O)O)CCCN1C(=O)c1ccc(SC(F)(F)F)cc1 (stereo not drawn)	1	-1
CCN(CC(=O)Nc1c(Cl)cccc1Cl)C(=O)c1ccc2c(c1)NC(=O)CS2	-1	-4
CC1(C)CC(=O)C2=C(C1)OC(=N)C(C#N)C2(C)C (stereo not drawn)	-4	-5
CN(Cc1ccccc1)C1CCCN(C(=O)CCCc2ccccc2)C1 (stereo not drawn)	6	6
